ID4 SMM: ID4 (human) binding. P47928. small molecule microarray, Flag-ID4 binding, fluorescence F/B. calls only. 31,000 compounds, 1.2% hits;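 active = spot signal over background at p below 0.07 in all four prints; compounds were printed on slides so no solution concentration is given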;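 also: a binder raises fluorescence above local background on the spot; about 2 pmol printed per array spot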
Target sequence (P47928 whole entry, looked up): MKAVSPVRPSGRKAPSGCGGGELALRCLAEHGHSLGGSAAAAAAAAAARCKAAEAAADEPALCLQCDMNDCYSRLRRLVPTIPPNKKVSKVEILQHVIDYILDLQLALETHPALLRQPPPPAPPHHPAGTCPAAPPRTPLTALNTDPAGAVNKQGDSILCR
Calls only; i = inactive; + = active, no number.

Sample of the layout, 14 compounds:
SMILES | ID4 SMM
CS(=O)c1ccc(-c2nc(-c3ccc(F)cc3)c(-c3ccncc3)[nH]2)cc1 (stereo not drawn) | i
CN(C)C(=O)[C@@]1(Cc2ccccc2)N=C(c2ccc(OCCCO)cc2)O[C@H]1c1ccccc1 | i
O=C(C[C@@H]1C[C@H]2c3cc(NC(=O)Nc4ccc(C(F)(F)F)cc4)ccc3O[C@H]2[C@H](CO)O1)NCCc1ccccc1 | i
O=C(COc1ccc(S(=O)(=O)N2CCOCC2)cc1)Nc1ccc(F)c(Cl)c1 | i
C[C@H]1CN([C@@H](C)CO)C(=O)c2cc(-c3ccccc3F)cnc2O[C@H]1CN(C)C(=O)C1CC1 | i
COc1cc(NC(=O)COc2ccc(Cl)cc2)c(C(=O)O)cc1OC | i
COc1ccc(C(=O)Nc2ccc3c(c2)OC[C@@H](C)N(C)C[C@@H](C)[C@H](OC)CN(C)C3=O)cc1 | i
CO[C@@H]1CN(C)C(=O)c2ccc(NC(=O)C3CC3)cc2OC[C@@H](C)N(CC2CCOCC2)C[C@H]1C | i
C[C@@H]1CN([C@H](C)CO)C(=O)c2cc(C#CC3CCCCC3)cnc2O[C@@H]1CN(C)Cc1ccncc1 | i
CCOC(=O)c1c(C)oc2ccc(OCC(=O)c3ccc(Br)cc3)cc12 | i
C[C@H]1CN([C@@H](C)CO)S(=O)(=O)c2ccc(-c3ccccc3F)cc2O[C@@H]1CN(C)S(C)(=O)=O | i
O=C(Nc1ccccc1C(=O)OCc1cccc(C(=O)c2ccccc2)c1)c1ccccc1 | i
C[C@H]1CN([C@@H](C)CO)C(=O)c2cc(C#CCN(C)C)cnc2O[C@H]1CN(C)C(=O)Cc1ccccc1 | i
C[C@@H]1CN([C@H](C)CO)C(=O)c2cc(C#Cc3ccccn3)cnc2O[C@H]1CN(C)CC1CCCC1 | i

The listing, from the first entry:
SMILES | ID4 SMM
CS(=O)c1ccc(-c2nc(-c3ccc(F)cc3)c(-c3ccncc3)[nH]2)cc1 (stereo not drawn) | i
CN(C)C(=O)[C@@]1(Cc2ccccc2)N=C(c2ccc(OCCCO)cc2)O[C@H]1c1ccccc1 | i
O=C(C[C@@H]1C[C@H]2c3cc(NC(=O)Nc4ccc(C(F)(F)F)cc4)ccc3O[C@H]2[C@H](CO)O1)NCCc1ccccc1 | i
O=C(COc1ccc(S(=O)(=O)N2CCOCC2)cc1)Nc1ccc(F)c(Cl)c1 | i
C[C@H]1CN([C@@H](C)CO)C(=O)c2cc(-c3ccccc3F)cnc2O[C@H]1CN(C)C(=O)C1CC1 | i
COc1cc(NC(=O)COc2ccc(Cl)cc2)c(C(=O)O)cc1OC | i
COc1ccc(C(=O)Nc2ccc3c(c2)OC[C@@H](C)N(C)C[C@@H](C)[C@H](OC)CN(C)C3=O)cc1 | i
CO[C@@H]1CN(C)C(=O)c2ccc(NC(=O)C3CC3)cc2OC[C@@H](C)N(CC2CCOCC2)C[C@H]1C | i
C[C@@H]1CN([C@H](C)CO)C(=O)c2cc(C#CC3CCCCC3)cnc2O[C@@H]1CN(C)Cc1ccncc1 | i
CCOC(=O)c1c(C)oc2ccc(OCC(=O)c3ccc(Br)cc3)cc12 | i
C[C@H]1CN([C@@H](C)CO)S(=O)(=O)c2ccc(-c3ccccc3F)cc2O[C@@H]1CN(C)S(C)(=O)=O | i
O=C(Nc1ccccc1C(=O)OCc1cccc(C(=O)c2ccccc2)c1)c1ccccc1 | i
C[C@H]1CN([C@@H](C)CO)C(=O)c2cc(C#CCN(C)C)cnc2O[C@H]1CN(C)C(=O)Cc1ccccc1 | i
C[C@@H]1CN([C@H](C)CO)C(=O)c2cc(C#Cc3ccccn3)cnc2O[C@H]1CN(C)CC1CCCC1 | i
CCCN(C)C[C@H]1Oc2ncc(C#CC3CC3)cc2C(=O)N([C@@H](C)CO)C[C@H]1C | i
C[C@@H]1CN([C@H](C)CO)S(=O)(=O)c2ccc(C#CC3CCCC3)cc2O[C@@H]1CN(C)C | i
CS(=O)(=O)N(CC(=O)Nc1ccc(Br)cc1)c1ccc2c(c1)OCCO2 | i
C[C@H](CO)N1C[C@H](C)[C@@H](CN(C)C(=O)c2ccccc2)Oc2ncc(C#CC3CC3)cc2C1=O | i
C=CCNC(=O)[C@@H]1[C@H]2C(=O)O[C@H](c3ccccc3)[C@H](c3ccccc3)N2[C@H](c2ccccc2OCCO)[C@@]12C(=O)Nc1ccc(C#CCC(C(=O)OC)C(=O)OC)cc12 | i
CCOC(=O)c1c(NC(=O)CSc2nnc(C)o2)sc(C)c1C | i
C[C@H]1CN([C@@H](C)CO)S(=O)(=O)c2ccc(-c3ccccc3F)cc2O[C@H]1CN(C)Cc1cncnc1 | i
COC(=O)COc1cccc(NC(=O)c2ccccc2Cl)c1 | i
C[C@@H]1CN([C@@H](C)CO)S(=O)(=O)c2ccc(-c3cccc(F)c3)cc2O[C@@H]1CN(C)C | i
COc1cc2c(cc1OC)C1Cc3ccc(OC)c(OC)c3CN1CC2 (stereo not drawn) | i
C[C@H](CO)N1C[C@H](C)[C@H](CN(C)C(=O)Cc2ccccc2)Oc2ncc(-c3ccccc3)cc2C1=O | i
COC(=O)c1cc(NC2c3ccccc3C(=O)N2c2ccccn2)cc(C(=O)OC)c1 (stereo not drawn) | i
CC(C)C#Cc1cnc2c(c1)C(=O)N([C@H](C)CO)C[C@@H](C)[C@H](CN(C)C(=O)CC1CC1)O2 | i
O=C1CC2(CCCC2)CC(=O)N1CCNCC1COc2ccccc2O1 (stereo not drawn) | i
CC(C)CC#Cc1cnc2c(c1)C(=O)N([C@@H](C)CO)C[C@@H](C)[C@@H](CN(C)C(=O)c1ccccc1)O2 | i
Cc1cc(N(CC(=O)NC(C)C)S(C)(=O)=O)ccc1Br | i
O=C(Nc1sccc1C(=O)N1CCOCC1)c1cccnc1 | i
CC(=O)N[C@@H]1C=C[C@@H](CC(=O)NCC2CCCCC2)O[C@@H]1CO | i
C[C@@H]1CN([C@@H](C)CO)C(=O)c2cc(-c3cccc(F)c3)cnc2O[C@H]1CN(C)C(=O)C1CCC1 | i
C[C@@H]1CN([C@H](C)CO)C(=O)c2cc(C#CCN(C)C)cnc2O[C@@H]1CN(C)Cc1ccc(F)cc1 | i
Cc1cc(-c2ccccc2)nc(SCC(=O)Nc2ccc(SC(F)F)cc2)n1 | i
CCCN(C)C[C@@H]1Oc2ncc(-c3ccccc3F)cc2C(=O)N([C@H](C)CO)C[C@@H]1C | i
Cc1cc(C)nc(SCCS(=O)(=O)Cc2ccc(Cl)cc2)n1 | i
COc1ccc(OC)c(NC(=O)CN(c2ccccc2Br)S(C)(=O)=O)c1 | i
C[C@@H]1CN([C@@H](C)CO)C(=O)c2cc(-c3ccccc3)cnc2O[C@H]1CN(C)C(=O)c1cccc(F)c1 | i
CCCN(C)C[C@@H]1Oc2cc(C#Cc3ccccc3F)ccc2S(=O)(=O)N([C@@H](C)CO)C[C@@H]1C | i
CNC[C@@H]1Oc2cc(C#Cc3ccc(F)cc3)ccc2S(=O)(=O)N([C@@H](C)CO)C[C@H]1C | i
CC(C)C[C@@H]1NC(=O)[C@@H]2C[C@H](C(=O)O)[C@H](c3cccc(OCCO)c3)N2C1=O | i
O=C(C[C@@H]1CC[C@H](NS(=O)(=O)c2ccccc2)[C@@H](CO)O1)NCCN1CCCCC1 | i
CNC[C@@H]1Oc2cc(C#Cc3cccnc3)ccc2S(=O)(=O)N([C@@H](C)CO)C[C@H]1C | +
O=C(CC1CC1)Nc1ccc2c(c1)[C@@H]1C[C@H](CC(=O)N3CCc4ccccc4C3)O[C@H](CO)[C@@H]1O2 | i
Cc1sc2ncnc(NCCOCCO)c2c1C | i
COCC(=O)N(C)C[C@H]1Oc2cc(-c3cccc(F)c3)ccc2S(=O)(=O)N([C@@H](C)CO)C[C@H]1C | i
Cc1ccc(C(=O)CSc2ncnc3sc4c(c23)CCCC4)cc1C | i
Nc1nnc(SCC(=O)c2ccc3ccccc3c2)s1 | i
COC(=O)c1cn(CC(=O)NCC2CCCO2)c2ccccc12 (stereo not drawn) | i
O=C(COc1ccc(C(=O)Nc2cccc(C(F)(F)F)c2)cc1)Nc1ccccc1F | i
O=C(C[C@H]1C=C[C@H](NC(=O)CC2CC2)[C@@H](CO)O1)NCC(F)(F)F | i
O=C(O)Cc1ccc(NC(=O)c2cccnc2C(=O)O)cc1 | i
C[C@H](CO)N1C[C@H](C)[C@H](CN(C)C(=O)Cc2cccnc2)Oc2cc(C#Cc3ccccc3F)ccc2S1(=O)=O | i
CS(=O)(=O)N(CC(=O)Nc1ccc2ccccc2c1)c1cccc2ccccc12 | i
CC(C)NC(=O)N[C@H]1C=C[C@@H](CC(=O)NCc2ccc(Oc3ccccc3)cc2)O[C@@H]1CO | i
NC(=O)CSc1nnc(-c2ccccc2O)n1-c1ccccc1 | i
Cc1ccc(OCCCSc2nc(C)cc(=O)[nH]2)c(I)c1 | i
O=C(c1ccccc1Br)N1CCN(c2ccc([N+](=O)[O-])c(NCc3cccnc3)c2)CC1 | i
CCN(CC)C(=O)c1sc(NC(=S)Nc2nc(C)cc(C)n2)c(C(=O)OC)c1C | i
Continued:
SMILES | ID4 SMM
Cc1ccc(C)c(N2CCN(C(=O)CN3CC(c4ccccc4)CC3=O)CC2)c1 (stereo not drawn) | i
CO[C@@H]1CN(C)C(=O)c2ccc(NC(=O)C3CCOCC3)cc2OC[C@@H](C)N(CC2CC2)C[C@H]1C | i
CCOc1cccc2cc(C(=O)NCc3ccco3)c(=O)oc12 | i
CCn1c(SCC(=O)Nc2ccc3c(c2)OCCO3)nnc1-c1ccccc1O | i
COc1ccc(-c2cnc3c(c2)C(=O)N([C@@H](C)CO)C[C@H](C)[C@@H](CN(C)Cc2ccccc2)O3)cc1 | i
CC1(C)Cc2nc(-c3ccccc3)nc(SCC(=O)Nc3ccc(Br)cc3)c2CO1 | i
CN(c1cccc(NC(=O)c2ccc(CN3CCc4ccccc4C3)cc2)c1)S(C)(=O)=O | i
Cc1nc(C(F)(F)F)ccc1C(=O)NCC(O)c1ccccc1 (stereo not drawn) | i
O=C(COc1ccc(F)cc1)Nc1cc(Cl)ccc1C(=O)O | i
COc1ccccc1NC(=O)CSc1nc(Nc2ccccc2)nc(Nc2ccccc2)n1 | i
CCc1ccnc(NC(=O)CC2(CC(=O)O)CCCCC2)c1 | i
C[C@H](O)C#Cc1cnc2c(c1)C(=O)N([C@@H](C)CO)C[C@H](C)[C@@H](CN(C)CC1CCCCC1)O2 | i
COc1ccc2nc(SCC(=O)N3CCCc4ccccc43)[nH]c2c1 | i
O=C(CN1C(=O)S/C(=C\C=C\c2ccccc2)C1=O)Nc1cccc(O)c1 | i
Cc1cc(Br)c(NC(=O)CSc2nnc(-c3ccc(Cl)cc3)n2C)cc1C | i
C[C@H](NC(=O)C[C@H]1CC[C@H](NC(=O)C2CCC2)[C@H](CO)O1)c1ccccc1 | i
O=C(N[C@H]1CC[C@@H](CC(=O)N2CCc3ccccc3C2)O[C@@H]1CO)C1CCOCC1 | i
C[C@@H]1CN([C@@H](C)CO)C(=O)c2cc(-c3ccc(F)cc3)cnc2O[C@H]1CN(C)C(=O)CN(C)C | i
C[C@@H]1CN([C@@H](C)CO)C(=O)c2cc(C#Cc3cccc(F)c3)cnc2O[C@H]1CN(C)Cc1ccccn1 | i
Cc1cc(C)c(NC(=O)CN(c2ccc(F)cc2)S(C)(=O)=O)c(C)c1 | i
COc1ccccc1CCn1cc(C#N)c(=O)[nH]c1=O | i
Cc1ccc(NC(=O)c2cc(NC(=O)C3CC=CCC3C(=O)O)ccc2N2CCOCC2)cc1Cl (stereo not drawn) | i
CCOC(=O)N(C)C[C@@H]1OCc2ccccc2-c2ccccc2C(=O)N([C@@H](C)CO)C[C@@H]1C | i
C[C@@H]1CN([C@@H](C)CO)C(=O)c2cc(-c3ccncc3)cnc2O[C@H]1CN(C)Cc1ccc(Oc2ccccc2)cc1 | +
Cc1ccc(C(=O)NCCN2CCOCC2)cc1S(=O)(=O)N1CCCCC1 | i
COc1cccc(-c2cnc3c(c2)C(=O)N([C@@H](C)CO)C[C@@H](C)[C@H](CN(C)Cc2cccnc2)O3)c1 | i
CC(=O)N(C)C[C@H]1Oc2ncc(C#Cc3cccc(F)c3)cc2C(=O)N([C@@H](C)CO)C[C@H]1C | i
O=C(C[C@@H]1C=C[C@H](NC(=O)CC2CC2)[C@@H](CO)O1)NCc1ccc(Cl)cc1 | i
O=C(CSc1nnc(-c2cnccn2)n1-c1ccccc1)Nc1ccc(Br)cc1 | i
COC(=O)c1c(NC(=O)COc2ccccc2C(C)C)sc2c1CCCC2 | i
COc1cccc(-c2cnc3c(c2)C(=O)N([C@@H](C)CO)C[C@H](C)[C@@H](CN(C)CC2CCOCC2)O3)c1 | i
Cc1coc(C)c1C(=O)CC1(O)C(=O)N(CCc2ccccc2)c2ccc(Cl)cc21 (stereo not drawn) | i
CC(=O)N(C)C[C@@H]1Oc2ncc(C#CCc3ccccc3)cc2C(=O)N([C@@H](C)CO)C[C@@H]1C | i
Cc1nc(-c2c(C(=O)NN)noc2C)cs1 | i
Cc1ccc2c(c1)c1nnc(SCCN3CCOCC3)nc1n2C | i
C[C@H](CO)N1C[C@H](C)[C@H](CN(C)C)Oc2ncc(-c3ccc(C(=O)N(C)C)cc3)cc2C1=O | i
CCCN(C)C[C@H]1Oc2ncc(C#CC3CC3)cc2C(=O)N([C@H](C)CO)C[C@@H]1C | i
C[C@@H](NC(=O)C[C@H]1C=C[C@@H](NC(=O)Cc2ccccn2)[C@H](CO)O1)c1ccccc1 | i
CC(C)OC(=O)C(C)Sc1ncnc2scc(-c3ccc(Br)cc3)c12 (stereo not drawn) | i
O=C(OCCN1CCCCC1)c1cccc(COc2ccc3ccccc3c2)c1 | i
COc1cc(OC)cc(C(=O)Nc2ccc(OCC(=O)O)cc2)c1 | i
O=C(CCN1C(=O)C2C3C=CC(C4CC34)C2C1=O)Oc1cccc2cccnc12 (stereo not drawn) | i
O=C(COc1ccc([N+](=O)[O-])cc1)Nc1ccc(Cl)c(-c2nc3ccccc3s2)c1 | i
COc1ccccc1NC(=O)c1ccccc1NC(=O)COc1ccccc1C | i
NC(=S)Nc1ccccc1OC(F)(F)F | i
COC(=O)C[C@@H]1C=C[C@H](NS(=O)(=O)c2ccccc2F)[C@H](CO)O1 | i
CC(C)OC(=O)CSc1nnc(-c2ccccc2F)n1-c1ccccc1 | i
COc1cccc(C#Cc2ccc([C@H]3[C@@H](CO)N(C(=O)C4CCCCC4)[C@H]3C#N)cc2)c1 | i
COc1ccc(-n2c(SCC(=O)Nc3ccc(Cl)cc3Cl)nnc2-c2ccncc2)cc1 | i

From PubChem BioAssay

A portion of the library; rates above refer to the full screens.
